Assay outcomes deposited in PubChem by National Center for Advancing Translational Sciences (NCATS).
StopGo reporter: High Throughput Screening for Foot and Mouth Disease Virus Antivirals. human cells with a luciferase reporter of 2A StopGo recoding; control for the full effect not named in the record. Potency, µM (series often up to 57.9 µM), for inactives: at the top dose signal change, negative = less light. 410,000 compounds, 1.2% hits; active = well fitted falling curve with a large enough effect; inconclusive = small, poorly fitted or top-dose-only effect; inactive = no such curve, though single readings can be large or run the other way; tested in HEK293T cells; further: on the % scale 0 is the no-effect control and ±100 the full control effect; nearly all actives have a fitted effect of over 45% in size; luciferase light after 4 h
SARS PLP yeast: qHTS of Yeast-based Assay for SARS-CoV PLP | S. cerevisiae expressing SARS-CoV PLpro, growth rescue; control for the full effect not named in the record | Potency, µM (series often up to 32.9 µM), without a hit: top-dose activity, positive = growth rescue | 330,000 compounds, 0.19% hits; active means well fitted rising curve with a large enough effect; inconclusive means small, poorly fitted or top-dose-only effect; inactive means no such curve, though single readings can be large or run the other way; further: 0% is about no effect; nearly all actives have a fitted effect of over 55% in size; growth read by luminescence after 48 h
RE007 growth inh: qHTS Assay for Inhibitors of the HIV-1 protein Vpr. S. pombe RE007 Vpr strain, BacTiter-Glo ATP luminescence, 24 h; control for the full effect not named in the record. Potency, µM (titrated, usually from 92.2 µM), for inactives: at the top dose activity change, negative = less growth. 360,000 compounds, 0.21% hits. AID 651644, 2012; active = well fitted falling curve with a large enough effect; inconclusive = small, poorly fitted or top-dose-only effect; inactive = no such curve, though single readings can be large or run the other way;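 further: on the % scale 0 is the no-effect control and ±100 the full control effect; nearly all actives have a fitted effect of over 50% in size; the assay follows cell death caused by Vpr and the record does not say whether a fall means rescue or toxicity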
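Fission yeast strain RE007, carrying one chromosomally integrated HIV-1 vpr copy, was seeded at OD 0.01 in PMG+AL medium with 23 nL pinned compound. After 24 h at 30 °C and 99% humidity, viability was read by BacTiter-Glo luminescence.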
Numbers without * were called inactive; ? = inconclusive; & = joins results of further samples; ! = not active in a repeat; [ ] = remark or other dose. Potency means the concentration at half of the fitted maximal effect.

Molecule	StopGo reporter	SARS PLP yeast	RE007 growth inh
Cn1cnc([N+](=O)[O-])c1SCC(O)CN1CCCCC1 (configuration not stated)	0%	0%	16%
CC(Sc1nnc(-c2ccccc2F)n1C1CC1)C(=O)N1CCCC1 (configuration not stated)	-16%	-5%	8%
Cn1c(N)c(C(=O)COC(=O)Cc2c(F)cccc2Cl)c(=O)n(C)c1=O	40%[activator]	3%	5%
O=C(c1cccc(S(=O)(=O)N2CCOCC2)c1)N(CCc1ccccc1)Cc1ccccc1	-19%	3%	-1%
COC(=O)c1ccc(CNC(=O)CSC(C)C(=O)Nc2cc(C)on2)cc1 (configuration not stated)	5%	-5%	-7%
Cc1ccc(C(=O)CCC(=O)Nc2cc(C)ccn2)cc1	38%[activator]	4%	-3%
CC[C@@]1(C(=O)OC)N[C@H](CN(C)C(=O)Nc2ccc(C)cc2)[C@@H]2C(=O)N(Cc3ccccc3)C(=O)[C@@H]21	0%	2%	4%
O=C(CCc1nc2ccccc2s1)N1CCN(c2ccccc2)CC1	-20%	-1%	13%
CN(C(=O)CSc1ccc2c(c1)OCCO2)c1ccccc1	54%[activator]	0%	-18%
CCOC(=O)Nc1cccc(OCC(=O)Nc2ccc3c(c2)CCC3)c1	-16%	0%	-15%
CCC1Nc2ncnc(N3CCCCC3)c2N(Cc2ccc(OC)cc2)C1=O (configuration not stated)	-5%&-20%	-4%	5%&4%
CC(C)COc1cccc(C(=O)N2CCN(C(=O)c3ccco3)CC2)c1	-17%	1%	-14%
COc1cc(C(=O)Nc2ccc(C(N)=O)cc2)c([N+](=O)[O-])cc1OC	-6%	1%	2%
CCC(=O)C1=C(O)C(c2cccc(Oc3ccccc3)c2)CCC1=O (configuration not stated)	-15%	3%	-17%
O=C(NCCN1CCOCC1)c1cccc(S(=O)(=O)Nc2ccc(F)cc2)c1	32%[activator]	2%	-4%
O=c1cc(N2CCc3ccccc32)[nH]c(=O)n1-c1ccc(Cl)cc1	26%	1%	2%
COc1cccc([C@@H]2CC=C(C(=O)O)[C@H](c3ccc(Br)cc3)N2S(=O)(=O)c2ccc(C)cc2)c1	-8%	1%	7%
Cc1cc(C)c(C)c(S(=O)(=O)N2CCC(C(=O)N3CCCC3)CC2)c1C	-29%	-2%	28%
Cc1[nH]c2ccc(F)cc2c1CCN(Cc1ccncc1)C(=S)Nc1cccc(F)c1	-3%	0%	3%
COc1cc(OC)c(C2=Nc3ccc(Br)cc3C(c3ccccc3)N2CC(=O)NN)cc1OC (configuration not stated)	-11%	-3%	2%

Taken from above:
Result for CCC(=O)C1=C(O)C(c2cccc(Oc3ccccc3)c2)CCC1=O (configuration not stated) under SARS PLP yeast: 3%
Result for CC(C)COc1cccc(C(=O)N2CCN(C(=O)c3ccco3)CC2)c1 under RE007 growth inh: -14%

More entries follow.
Molecule	StopGo reporter	SARS PLP yeast	RE007 growth inh
CCOC(=O)[C@H]1[C@H]2COc3ccc(OC)cc3[C@@H]2N2C(=O)CN(C)C(=O)[C@@]12C	-3%	?	-3%
COc1cccc2sc(N(CCCN(C)C)C(=O)COc3ccc(Cl)cc3)nc12	-27%	-1%	-3%
CN(C)C(=O)NC(NC(=S)Nc1ccccc1)C(Cl)(Cl)Cl (configuration not stated)	-6%	-1%	4%
O=C(Nc1cccc(S(=O)(=O)N2CCOCC2)c1)C1CCCC1	6%	3%	6%
CC(=O)c1cccc(OC(=O)C2=CC=CN3CCS(=O)(=O)N=C23)c1	-24%	3%	-2%
CCCCNc1c(-c2ccc(SC3CCCCC3)c(OC)c2)nc2ccc(C)cn12	28µM*!	3%	?
COc1ccccc1NS(=O)(=O)c1cccc(NC(=O)CCNC(=O)c2ccccc2OC)c1	?	0%	-16%
CNc1ccccc1C(C)(C)c1cc(C)[nH]n1	-27%	7%	-6%
COC(=O)C1=C(c2ccc(F)cc2OCc2ccccc2)C[C@@H]2CC[C@H]1N2C(=O)N1CCCCC1	-15%	2%	-7%
O=C(COc1ccccc1[N+](=O)[O-])NCCCN1CCCC1=O	-7%	-5%	7%
Cc1cc(C)c(NC(=O)c2ccc3c(c2)NC(=O)C(C)S3)c(C)c1 (configuration not stated)	?	0%	16%
CCN(CC(=O)NCc1cccs1)S(=O)(=O)c1ccc([N+](=O)[O-])cc1	-14%	3%	-5%
CCOC(=O)C1=CNS(=O)(=O)NC1c1ccc2ccccc2c1 (configuration not stated)	-3%	17%	4%
Cc1noc(C)c1NC(=O)N(C)C[C@H]1Oc2c(NC(=O)c3ccncc3)cccc2C(=O)N([C@H](C)CO)C[C@@H]1C	6%	6%	10%
COc1ccc(C2NC(=O)C(C#N)=C(S)N2c2ccc(C)cc2)cc1OC (configuration not stated)	14%	-1%	5%
CN(CC(=O)Nc1ccc(Cl)cc1)C(=O)CNC(=O)Cc1cccc2ccccc12	-18%	-2%	1%
Cn1c(SCC(=O)Nc2ccccc2Oc2ccccc2)nnc1C1CC1	-10%	-4%	0%
CC[C@@H](CCC=C(C)C)C(=O)N(Cc1ccccc1)c1ccccc1	?	3%	3%
CC(c1ccccc1)N1CC(C(=O)N2CCCC(C(N)=O)C2)CC1=O (configuration not stated)	-5%	3%[6.58 µM]	10%
CCOC(=O)[C@H]1[C@H]2COc3ccc(Br)cc3[C@@H]2N2C(=O)CN(Cc3ccc(C)cc3)C(=O)[C@@]12C	-26%	-1%	1%
CCN(C(=O)COC(=O)CCOc1ccccc1)c1c(N)n(Cc2ccccc2)c(=O)[nH]c1=O	-17%	13%[6.58 µM]	0%
CSCCC(NS(=O)(=O)c1ccc(C)cc1)C(=O)NCC(C)(C)N1CCOCC1 (configuration not stated)	7%	0%	-18%
CNC(=O)COC(=O)c1ccccc1C(=O)c1ccc(Cl)c([N+](=O)[O-])c1	?	0%	0%
CCN([C@H](CO)C(C)C)S(=O)(=O)c1ccccc1Br	-27%	-3%	6%
C[C@H]1CN([C@@H](C)CO)C(=O)c2cccc(NS(=O)(=O)c3ccc(Cl)cc3)c2O[C@@H]1CN(C)CC1CCCCC1	66%[activator]	4%	1%
COc1ccccc1N1CCN(C(=O)c2ccc3c(=O)n4c(nc3c2)CCCCC4)CC1	-21%	7%	-7%
CC1CCCCC1NC(=O)c1ccc(-n2cncn2)cc1 (configuration not stated)	7%	5%	12%
O=C(c1ccc(-c2ccc([N+](=O)[O-])cc2)o1)N1CCCCCCC1	-1%	3%	-90%
CCN(C(=O)CSc1nc(C)nc2sc(C)c(C)c12)C1CCS(=O)(=O)C1 (configuration not stated)	0%	1%	3%
Cc1ccccc1-c1cc(C(=O)NCc2ccc(OC(F)(F)F)cc2)nn1CC1CC(c2cccc([N+](=O)[O-])c2)=NO1 (configuration not stated)	-20%	-1%	-20%
CCCCN(CC)CCNC(=O)CCC(=O)Nc1ccc2nc(N3CCN(C)CC3)cc(C)c2c1	-18%	-1%	-6%
O=C(COC(=O)/C=C/c1cccc(Cl)c1)NC(=O)NCc1ccccc1	-1%	-13%	18%
C=CC[C@@H](Cc1ccc(F)cc1)C(=O)OC[C@H]1CCCN1C(=O)[C@H](CC=C)CC(=O)N[C@H](CO)Cc1ccccc1	-25%	-44%	0%
CC1(c2ccc(OC(F)F)cc2)NC(=O)N(CC(=O)NCCC2=CCCCC2)C1=O (configuration not stated)	-28%	1%	-16%
CC(C)[C@H](NC(=O)c1ccccc1)C(=O)NC1CCCCCCC1	-4%	1%	-12%
COc1ccc(S(=O)(=O)N2CCN(C(=O)CSC(=S)N3CCCC3)CC2)cc1	-3%	6%	1%
CCCc1cc(=O)[nH]c(SCC(=O)N2CCCCCC2)n1	-14%	2%	-22%
O=C(CCN1C(=O)c2cccc3cccc(c23)C1=O)Nc1ccccc1	-11%	2%	-6%
CC[C@]12c3[nH]c4ccccc4c3CCN1C(=O)C(CC(=O)NCc1ccco1)C[C@@H]2C(=O)N1CCN(C(=O)C2CC2)CC1 (some centres not stated)	1%	0%	7%
O=C(CSc1nnnn1-c1ccccc1)NCC1(N2CCCCC2)CCCCC1	-24%	3%	-7%
CC(Sc1nc2ncc(Cl)cc2[nH]1)C(=O)NC1(C#N)CCCCC1 (configuration not stated)	?	-7%	26%
O=C1C=C(c2cccc(Br)c2)C[C@@H](c2ccc(F)cc2)C1	-23%	1%	-4%
COc1ccc(-c2c(-c3ccc(OC)c(F)c3)c3ccccc3n2C)cc1	-28%	0%	-5%
CC(C)CN1C(=O)C(=O)N(CC(=O)Nc2cccc(Cl)c2Cl)C1=O	-12%	2%	-19%
Cc1ccccc1NC(=O)Cc1nc(CN(C)CC(=O)Nc2cccc(F)c2)cs1	-19%	1%	18%
COc1cc(S(=O)(=O)N(C)Cc2ccc3c(c2)OCCO3)ccc1NC(C)=O	7%	-7%	1%
CN(C)S(=O)(=O)c1cccc(N2C(=O)CC3(CCCCC3)CC2=O)c1	-25%	-4%	-2%
CC(=O)c1sc(NC(=O)CCCc2nc3ccccc3c(=O)[nH]2)nc1-c1ccccc1	-18%	0%	-15%
CCOc1ccccc1-n1c(SC(C)C(=O)NCC2CCCO2)nc2ccccc2c1=O (configuration not stated)	-25%	-2%	9%
COc1ccc(S(=O)(=O)Nc2ccc3c(c2)CC(=O)N([C@@H](C)CO)C[C@@H](C)[C@@H](CN(C)Cc2ccccc2)O3)cc1	0%	3%	-22%
Cc1cccc(C)c1NC(=O)COC(=O)c1cc(=O)[nH]c2ccccc12	-19%	0%	-2%
CCCCC[C@@H](O)c1cc2ccccc2c(=O)o1	57%[activator]	-5%	11%
CCOC(=O)[C@H]1[C@H]2COc3cc(OC)ccc3[C@@H]2N2C(=O)CN(CC3CCCO3)C(=O)[C@@]12C (some centres not stated)	3%	-1%	-4%
CCN(C[C@H]1N[C@@](Cc2ccccc2)(C(=O)OC)[C@H]2C(=O)N(Cc3ccccc3)C(=O)[C@@H]12)C(=O)c1ccccc1	-23%	2%	1%
COC(=O)c1ccc(CSC2=NC[C@@H]3[C@@H]4C(=O)N(C)C(=O)[C@@H]4[C@](C)(C(=O)OC)N23)cc1	-7%	11%	-3%
CC1CCCCN1C(=O)COC(=O)c1cc(-c2cccs2)nn1-c1ccccc1 (configuration not stated)	-1%	2%	-9%
CSCCC(NC(=O)c1cccc(C)c1)C(=O)NNC(=O)c1cccs1 (configuration not stated)	7%	-4%	10%
C[C@H](CO)N1C[C@H](C)[C@@H](CN(C)C(=O)Nc2ccccc2)Oc2ccc(NC(=O)Cc3ccccc3)cc2C1=O	30%	-3%	10%
O=[N+]([O-])c1ccc(/C=N/NC2=NS(=O)(=O)c3ccccc32)cc1	21%	0%	-16%
CCOC(=O)C1CCCN(C(=O)c2ccc(C)c(S(=O)(=O)N3CCCCC3)c2)C1 (configuration not stated)	?	6%	9%

As a working copy, some entries already given:
Molecule	StopGo reporter	SARS PLP yeast	RE007 growth inh
O=[N+]([O-])c1ccc(/C=N/NC2=NS(=O)(=O)c3ccccc32)cc1	21%	0%	-16%
CCOC(=O)C1CCCN(C(=O)c2ccc(C)c(S(=O)(=O)N3CCCCC3)c2)C1 (configuration not stated)	?	6%	9%

(next part)
Molecule	StopGo reporter	SARS PLP yeast	RE007 growth inh
O=C(COC(=O)c1cccs1)Nc1ccc(F)c(F)c1	6%	5%	-15%
COc1ccc(CN(CC2CCC(C(=O)O)CC2)C(=S)Nc2ccc(C)c(Cl)c2)cc1 (configuration not stated)	-6%	-7%	9%
COC(=O)[C@]1(Cc2ccccc2)N[C@H](CN(C)C(=O)NC(C)C)[C@@H]2C(=O)N(Cc3ccccc3)C(=O)[C@@H]21	-11%	4%	7%
O=C(CSc1nc2ccccc2c(=O)n1CCCN1CCOCC1)NC12CC3CC(CC(C3)C1)C2	-16%	0%	-14%
Cc1ccc(C)c(S(=O)(=O)N2CCCCC2CCNC(=O)C(=O)NCCc2ccco2)c1 (configuration not stated)	-29%	-1%	7%
CCOC(=O)c1[nH]c2ccc(OC)cc2c1NC(=S)N1CCN(C(=O)OCC)CC1	-2%	-4%	-5%
COc1ccc(OC)c(C(C)NC(=O)C(C)n2cc([N+](=O)[O-])cn2)c1 (configuration not stated)	-5%	-3%	4%
CN1C(=S)N(c2cccnc2)C(=O)/C1=C\c1ccc(C(C)(C)C)cc1	?	-4%	1%
CCCc1cc(=O)[nH]c(SCC(=O)N2CCc3ccccc32)n1	14%	1%	8%
CN(C)S(=O)(=O)c1cccc(NC(=O)COc2ccc3ccccc3c2)c1	-20%	10%	14%
O=C(COC(=O)c1cc(Cl)nc(Cl)c1)NC1CCCCCC1	-5%	3%	1%

The list is partial (hit frequency here may not be typical).
